Source: PubChem BioAssay (PCMD)
Biofilm kill mix: mixture kills Candida albicans biofilm cells. C. albicans biofilm persisters + clotrimazole, fluorescence viability; primary screen in compound mixtures of four per well. inhibition, % at 7.6 µM. 0.02% of 120,000 active. AID 1242;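 active = inhibition above 30.3% in the primary screen of four-compound pools, then above 30% when the compound was retested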;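 note: compounds exposed to preformed 24 h biofilms for 48 h; the number belongs to the whole pool; some results filed as inactive read as strong as hits; inactives centre near 12; 0% = biofilm with clotrimazole alone and 100% = kill control; retested singly at about 60 µM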
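Assay system: C. albicans biofilms / Medium: RPMI/MOPS medium, pH 7.0 / Schedule: biofilm formation 24 h, compound exposure 48 h, 37 °C / Measured by: Alamar Blue fluorescence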
An asterisk follows results filed as active. Not all compounds are listed, so the mix of outcomes need not match the whole.

mol	Biofilm kill mix
C=CCOC(=O)C1=C[C@@H](c2coc3ccccc3c2=O)[C@H](CCCO)[C@@H](OCC)O1	14.6
CCCCNS(=O)(=O)c1ccc(OCC(=O)OC)cc1	8.6
Cc1cccc([N+](=O)[O-])c1NC(=O)CN(Cc1ccccc1)Cc1ccccc1	9.7
CC(C)(C)c1ccc(/C=C/C(=O)N2CCOCC2)cc1	24.5
Cc1ccc(-n2nc3c([n+]2[O-])CCc2nonc2-3)cc1	0.0
COc1ccc(N2C(=O)c3ccccc3NC2(C)C)cc1	2.9
Nc1nc(NCc2ccco2)nc(Nc2ccc(F)cc2)c1[N+](=O)[O-]	20.0
O=S(=O)(NCC(c1ccco1)N1CCN(c2ccccc2F)CC1)c1ccc2c(c1)OCCO2 (stereo unspecified)	13.7
C=CCNC(=S)N/N=C/c1ccc(C)s1	25.1
COc1ccccc1-c1nc2ccccc2c(=O)n1NC(=O)c1cccs1	11.8
CCN(C(=O)COC(=O)c1cc(OC)c(OC)cc1[N+](=O)[O-])C1CCS(=O)(=O)C1 (stereo unspecified)	19.4
CCC(=O)c1ccc(SC(=O)N(C)C)cc1O	12.6
O=[N+]([O-])c1ccc(NC(=S)N2CCc3ccccc3C2)cc1	12.9
COC(=O)CNC(=O)C(Cc1c[nH]c2ccccc12)NC(=O)Oc1ccccc1 (stereo unspecified)	3.0
O=C(Cc1ccc([N+](=O)[O-])cc1)N/N=C/c1ccc([N+](=O)[O-])o1	13.3

Looked up one by one from above (three):
mol	Biofilm kill mix
CCC(=O)c1ccc(SC(=O)N(C)C)cc1O	12.6
CC(C)(C)c1ccc(/C=C/C(=O)N2CCOCC2)cc1	24.5
Cc1cccc([N+](=O)[O-])c1NC(=O)CN(Cc1ccccc1)Cc1ccccc1	9.7

Among those listed so far, 2 contain a thiophene ring, fused or not.
mol	Biofilm kill mix
C=CCNC(=S)N/N=C/c1ccc(C)s1	25.1
COc1ccccc1-c1nc2ccccc2c(=O)n1NC(=O)c1cccs1	11.8

Other results.
mol	Biofilm kill mix
C=C(C)C1(O)OC(=O)C=C1OC (stereo unspecified)	20.0
O=C(Nc1cccnc1)c1ccc(CSc2ccccc2)cc1	11.4
O=C(CS(=O)(=O)Cc1ccccc1)Nc1ccc(S(=O)(=O)N2CCOCC2)cc1	5.1
c1ccc(-c2ccccc2OCCCN2CCCC2)cc1	9.4
CCCCNS(=O)(=O)c1ccc2nc(-c3cccnc3)cc(C(=O)NCCCN(CC)CC)c2c1	13.5
COc1cccc(CC(=O)Nc2nc3ccccc3[nH]2)c1	1.2
O=C(Nc1cccc(Cl)c1)Nc1ccccc1C(=O)O	19.4
C/C(CC(=O)Nc1ccc(Cl)cc1C(F)(F)F)=N\NC(=O)c1cccs1	22.2
Cc1noc(C)c1S(=O)(=O)Nc1ccc(O)c2c(=O)cc(-c3ccccc3Cl)oc12	15.9
Nc1cccc(/C=C/C(=O)O)c1	20.6
COc1ccccc1NS(=O)(=O)c1cccc(C(=O)N/N=C/c2ccc(OCC(=O)O)cc2)c1	7.8
Cc1cc(C)c(NC(=O)C2CCC(=O)N2)c(C)c1 (stereo unspecified)	7.4
Cc1cc(C)c2c3c(sc2n1)C1(CCSCC1)C(C#N)=C(N)O3	8.3
O=C(CCc1ccccc1)Nc1ncc([N+](=O)[O-])s1	14.0
Clc1ccc(-c2csc(Nc3cccnc3)n2)cc1	21.0
O=C(CSc1ccc(-c2cccnc2)nn1)c1ccc([N+](=O)[O-])cc1	13.3
O=C1CSC(c2ccc([N+](=O)[O-])cc2)N1CCN1CCCCC1 (stereo unspecified)	14.3
O=C(COC(=O)c1cc2ccccc2cc1O)Nc1cccnc1Cl	6.8
Fc1cc(Cl)ccc1NC(=S)NCCN1CCOCC1	3.5
CCOC(=O)c1c(C)nc(C(Cl)(Cl)Cl)nc1N	9.3
COc1ccc(C(=O)Nc2ccccc2N2CCCCC2)cc1[N+](=O)[O-]	0.7
COc1ccc(S(=O)(=O)NCCc2nnc3ccc(SCC(=O)Nc4cc(C)on4)nn23)cc1	8.1
Cc1ccc(-n2c(N)c(Br)c(=O)[nH]c2=O)cc1C	3.6
Fc1ccc(-c2oncc2-c2nnnn2-c2ccccc2)cc1F	11.3
O=C(CCc1ccc(S(=O)(=O)NCCc2ccccc2)cc1)Nc1ccc2c(c1)OCCO2	4.9
CCn1c(C)nc2cc(C(=O)NNC(=S)Nc3ccc(OC)cc3)ccc21	9.3
O=C(NC(=S)Nc1ccc(Cc2ccncc2)cc1)c1ccccc1F	10.4
CC(=O)NC1=NN(C(C)=O)C2(S1)C(=O)N(CC(C)C)c1ccc(C)cc12 (stereo unspecified)	8.1
O=C(NC1CCCC1)C(c1ccc(Cl)cc1)N(Cc1ccc(F)cc1)C(=O)CCl (stereo unspecified)	15.6
COc1ccc(Sc2ncnc3onc(C)c23)cc1	5.3
O=C(CN1CC(=O)Nc2ccccc21)NCCc1ccc(Cl)cc1Cl	5.8
O=C(C1=C[C@H](C2CC2)C[C@H](OCc2ccc(CO)cc2)O1)N1CCOCC1	14.7
COc1ccc(C(=O)COC(=O)CCc2ccccc2)cc1	18.9
CC1=CC(C)(C)N(C(=O)CN2C(=O)CCC2=O)c2ccc(C)cc21	2.5
COc1ccc(-c2[nH]c(-c3ccc(F)cc3)nc2SCC(=O)NC2CCCC2)cc1	12.4
O=C(C1CCCN(S(=O)(=O)c2ccccc2[N+](=O)[O-])C1)N1CCCC1 (stereo unspecified)	22.9
COc1cc(C(=O)Nc2nc(-c3ccc(C)cc3)cs2)ccc1OCC(=O)N1CCOCC1	6.7
O=C(NN=C1CCN(Cc2ccccc2)CC1)c1cc(Br)ccc1O	14.5
Cc1ccc(C(=O)NN2C(=O)C3C(C2=O)C2C=CC3C23CC3)cc1 (stereo unspecified)	7.3
Cc1ccc2c(ccc[n+]2CC(=O)c2ccccc2)c1	15.4
CCN1CCN(C(=O)NCc2ccccc2)CC1	20.9
O=C1NC(=S)S/C1=C/c1ccc(Oc2cnccn2)cc1	12.3
COc1ccccc1C(=O)Nc1ccc2c(c1)nc1n2CCN(Cc2ccccc2)C1	3.6
CC(C)C(C)NC(=O)COc1ccc(S(=O)(=O)N2CCOCC2)cc1[N+](=O)[O-] (stereo unspecified)	11.1
COc1ccccc1Oc1ccc(N/C=C/C(=O)c2ccc(C)o2)cc1	-4.4
CCCOc1ccc(C(=O)C(CCC(CNCC)C(=O)c2ccc(OCCC)cc2)CNCC)cc1 (stereo unspecified)	10.0
CC(=O)NNc1ncnc2c1cnn2-c1ccc(C)c(Cl)c1	13.0
Cc1ccc(C(=O)N2N=C3c4ccccc4S(=O)(=O)N3[C@H]2N(C)C)cc1	9.5
COC(=O)c1ccc(CNC(=O)CSC2=NCCS2)cc1	10.3
CC(C)N1CCC(N2CCN(Cc3ccc4nonc4c3)CC2CCO)CC1 (stereo unspecified)	4.7
Cc1nc(C(C)NC(=O)CCc2nnc(Cc3c[nH]c4ccccc34)o2)cs1 (stereo unspecified)	21.6
CC(C)(C)NC(=O)c1cccc2c1OC(C)(C)C2	1.9
CC(NC(=O)c1ccccc1F)c1ccccc1 (stereo unspecified)	17.8
CC1=NOC(=O)/C1=C\c1ccccc1	14.8
CCC(C(=O)NC1CCCCC1)n1c(SCc2ccc(F)cc2)nc2ccncc21 (stereo unspecified)	13.2
C=CCN1C(=O)C(C)S/C1=N\S(=O)(=O)c1ccc(Cl)cc1 (stereo unspecified)	20.6
CN(CCCNC(=O)c1ccc(N2CCCC2=O)cc1)c1ccccc1	7.5
Nc1cc(N)nc(SCC(=O)c2ccc3c(c2)NC(=O)CO3)n1	-3.8
CC(=O)c1cccc(CN2CCN(C3CCCCC3)C(CCO)C2)c1 (stereo unspecified)	4.7
O=c1c2ccccc2ncn1Cc1cccc2ccccc12	18.1

Remaining list, next part:
molecule | Biofilm kill mix
CCN1C(=O)c2ccc(-c3nc4ccccc4c(=O)o3)cc2C1=O | 9.7
CSc1sc(C(=O)N(C)C)c2c1S(=O)(=O)N(C)c1ccccc1-2 | 21.5
O=C(Cc1ccc(Cl)cc1)Nc1ccccc1C(=O)Nc1ccc(C(=O)O)cc1 | -0.2
ClCc1csc(N/N=C/c2cccs2)n1 | 27.3
COc1ccc(/C=C/C(=O)c2ccccc2)c(OC)c1 | -8.6
O=C(Nc1nc(-c2ccc(Cl)cc2Cl)cs1)C1CCCO1 (stereo unspecified) | 14.0
Cc1cc(C)n(C(=O)Cn2nc(C(F)F)cc2C)n1 | 13.6
COc1ccc(/C=C/C(=O)OCC(=O)Nc2ccc(Cl)cc2F)cc1S(=O)(=O)N1CCOCC1 | 22.6
O=C(Oc1ccc(C(=S)N2CCOCC2)cc1Br)c1ccccc1F | 7.0
CCCOc1ccc(N2C(=O)CC(SC(=NCC)Nc3cccc(F)c3)C2=O)cc1 (stereo unspecified) | 16.7
COc1cccc(CN2CCN(c3nc4nonc4nc3NC3CC3)CC2)c1 | 0.3
O=c1c(C/C=C/c2ccccc2)c(O)ccn1Cc1ccc(Cl)cc1Cl | 15.5
CC(=O)Nc1ccc(C(=O)OCc2ccccc2Cl)cc1 | 6.6
COc1ccc(C(C)NC(=O)c2ccc(Cl)cc2)cc1OC (stereo unspecified) | 10.6
COCC(C)n1c(COc2ccccc2F)nnc1SCC(=O)c1c(N)n(C)c(=O)n(C)c1=O (stereo unspecified) | 2.0
O=C(N/N=C/C(Br)=C/c1ccccc1)c1cnccn1 | 11.4
COc1ccc(S(=O)(=O)N=Nc2c(O)[nH]c3ccccc23)cc1 | 10.1
CN(C)/C=C1\N=C(c2cccnc2Oc2ccc(Cl)cc2)OC1=O | -2.2
CC(C)(CNc1ccc([N+](=O)[O-])cc1C#N)N1CCOCC1 | 14.2
O=C(Nc1ccccc1Br)C(=O)N1CCCC1 | 6.5
Cc1ccc(N=Cc2c(O)n(-c3nccs3)c(=O)c3ccccc23)c(C)c1 | 5.7
Cc1nc2ccccn2c1-c1csc(Nc2cccc(O)c2)n1 | 17.5
COc1cc(C(F)(F)F)c(C(=O)N(C)Cc2cccc(Cl)c2)cn1 | 18.3
COc1cccc(NC(=S)N(CCN2CCCCC2)Cc2ccco2)c1 | 9.0
O=C(N/N=C/c1ccc(O)cc1)c1cc(C23CC4CC(CC(C4)C2)C3)[nH]n1 | 21.6
N#Cc1ccsc1NC(=O)COc1ccc(-c2nnco2)cc1 | -10.8
COc1ccc(OC)c(NC(=O)NCCc2cccc(Cl)c2)c1 | 16.3
CCn1c(COc2cc(C)ccc2C(C)C)nnc1SCC(=O)Nc1nccs1 | -4.3
COc1cc([N+](=O)[O-])cc(/C=N/NC(=O)CSc2ccccn2)c1O | 18.4
CN(C)c1ccc(/C=C2/SC(=O)N(CCN=C3NS(=O)(=O)c4ccccc43)C2=O)cc1 | 14.2
OCCN1CCN(CC#CCC(c2ccccc2)c2ccccc2)CC1 | 21.9
COCC1CCCN(Cc2cn(Cc3ccccc3)nc2-c2cc3ccccc3o2)C1 (stereo unspecified) | 4.1
C(=N\Nc1nc2ccccc2[nH]1)/c1cccc2cccnc12 | 12.2
CCOC(=O)c1cnc2c(-c3ccccc3OC)c(C)nn2c1C | 16.5
O=C(COC(=O)C1CCN(S(=O)(=O)c2ccc3c(c2)OCCO3)CC1)Nc1cc(C(F)(F)F)ccc1Cl | 11.1
CCc1ccc(NC(=O)Cn2cnc3c(=O)n(C)c(=O)n(C)c32)cc1 | 14.6
CC1CCCCC12NC(=S)N(c1ccccc1)N2 (stereo unspecified) | 9.2
Cc1ccc(NC(=S)/N=C(\N)Nc2nc(C)c3ccccc3n2)cc1C | 5.6
O=C(CN1CCN(c2ccccc2F)CC1)Nc1nnc(C(F)(F)F)s1 | -10.9
COc1ccc(CCn2c(O)c(C=Nc3cccc(F)c3)c(=O)[nH]c2=O)cc1OC | 21.6
O=C(COC(=O)CCCCCN=C1NS(=O)(=O)c2ccccc21)Nc1ccc(Cl)c(Cl)c1 | 18.0
CCOc1ccccc1-c1cc(C(=O)N/N=C/c2ccc(O)c(OC)c2)c2ccccc2n1 | 8.0
C=CCN1C(=O)N(c2ccc(Cl)cc2)C(=O)C1CC(=O)Nc1ccc(F)cc1 (stereo unspecified) | 9.3
CCOC(=O)Cc1ccc2sc(-c3ccccc3)nc2c1 | 13.6
CCC(=O)N/N=C/c1ccc(-c2ccc([N+](=O)[O-])cc2)o1 | 3.2
Cc1nn(C(C)C(=O)NCc2cccs2)c(C)c1[N+](=O)[O-] (stereo unspecified) | 12.1
CC1(C)CC(=O)c2c(O)c(-c3ccccc3)c(=O)n(-c3ccccc3)c2C1 | 10.7
CCN(CC)c1ccc(C(=S)NCc2ccccc2)cc1 | 8.5
Cc1ccc(NC(=O)CSc2ncccn2)cc1F | 19.8
CCOc1ccc(NC(=O)C2CC(=O)OC2c2ccccc2)cc1 (stereo unspecified) | 15.4

Following part
molecule | Biofilm kill mix
O=Nc1c(O)n(Cc2ccccc2)c2ccccc12 | 21.9
COc1cccc(NC(=S)/C(=C(\[O-])c2ccc([N+](=O)[O-])cc2)[n+]2ccccc2)c1 | 17.3
COc1ccc(CN2C=C3C(=O)C(C)(OC(=O)CCc4ccccc4)C(=O)C=C3C=C2c2ccc(C#N)cc2)cc1 (stereo unspecified) | 19.8
CC/C(=N/O)C(=O)c1ccc(Br)cc1 | 18.6
COc1ccc(C(=O)Nc2sc3c(c2C#N)CCN(C(C)=O)C3)cc1 | 16.4
